Screens from PubChem.
B2AR ag – activates human beta-2 adrenergic receptor causing internalization. Am2.2-beta2AR cells, FAP receptor internalization, flow cytometry; reference of the scale not given here. response, % (test concentration not listed). actives 0.43% (n = 340,000);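 active = response above a set limit, near 3 SD of response in nonfluorescent compounds, cut at about 42% in these data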;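 also: stock transfer was 100 nL into about 11 µL; a reference agonist was the positive control; negative values mostly stem from fluorescent compounds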
HNF4A DNA FP – change in binding of human HNF4 alpha to DNA; actives 0.3% (n = 360,000); activity change, % at 10 µM; HNF4a-FITC DNA binding, fluorescence polarization, 1 h; P41235; in the data active = activity change above about 30%, passing the limit was not always enough;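 also: controls were the assay level and a saturating level of protein; the project sought stronger binding though the title names inhibitors; some compounds called inactive have numbers as strong as hits; positive values seem to mean higher polarization but the record does not say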
Target sequence (P41235 whole entry, looked up): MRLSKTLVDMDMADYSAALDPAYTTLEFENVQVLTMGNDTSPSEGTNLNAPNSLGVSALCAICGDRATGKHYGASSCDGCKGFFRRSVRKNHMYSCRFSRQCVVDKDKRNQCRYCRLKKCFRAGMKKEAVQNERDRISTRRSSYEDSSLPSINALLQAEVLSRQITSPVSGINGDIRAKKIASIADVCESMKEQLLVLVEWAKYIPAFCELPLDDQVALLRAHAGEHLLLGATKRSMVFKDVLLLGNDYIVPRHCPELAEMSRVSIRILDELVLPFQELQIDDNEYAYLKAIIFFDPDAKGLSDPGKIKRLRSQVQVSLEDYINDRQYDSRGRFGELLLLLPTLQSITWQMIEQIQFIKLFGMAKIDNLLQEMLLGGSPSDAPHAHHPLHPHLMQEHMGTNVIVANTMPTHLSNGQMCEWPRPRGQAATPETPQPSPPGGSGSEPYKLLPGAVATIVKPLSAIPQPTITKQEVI
Ecoli rRNA inh – selective bacterial rRNA inhibition in E. coli; GFP signal change (wild-type ribosome), % (test concentration not listed); actives 1.6% (n = 350,000); E. coli WT GFP vs humanized-ribosome RFP mutants, fluorescence, 24 h; stronger effect = lower value; DMSO median 0, no signal -100;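 active = significant combined selectivity score with lowered wild-type GFP, culture density cut under 30%, mutant RFP and density less affected; inactive = any of these conditions unmet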; also: one replicate is shown; some compounds called inactive have numbers as strong as hits
Ecoli growth – blocks Escherichia coli growth | OD600, 23 h; stronger effect = lower value | OD600 absorbance (test concentration not listed) | actives 0.21% (n = 330,000) | AID 1053175;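 active = OD600 absorbance below the run mean of sample wells minus 3.6 SD, in any replicate, cut at about 0.56 in these data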;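 also: stock transfer was 300 nL into about 60 µL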
FGF22 binding – FGF22 (human) thermal shift binding | Q9HCT0 | recombinant FGF22 thermal shift, SYPRO orange fluorescence; percent of sucrose octasulfate shift, DMSO zero | calls only at 9.99 µM | actives 1.5% (n = 340,000);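 active = melting point raised past a set limit in the mean and every replicate; inconclusive = no clear call; three in four hits are not shown here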
Target sequence (Q9HCT0 whole entry, looked up): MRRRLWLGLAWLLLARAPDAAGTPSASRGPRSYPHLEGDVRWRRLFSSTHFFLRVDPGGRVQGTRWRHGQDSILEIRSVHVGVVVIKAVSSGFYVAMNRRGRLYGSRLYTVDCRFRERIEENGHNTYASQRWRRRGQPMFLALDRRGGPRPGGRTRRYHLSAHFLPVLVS
ALR H2O2 inh – blocks human ALR sulfhydryl oxidase activity | P55789 | purified ALR, DTT oxidation, H2O2 HRP-luminol luminescence | inhibition, % (concentration not given with the values) | actives 3.8% (n = 290,000);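 active = mean and each replicate at 75% or more; inconclusive = only one of the two met; inactive = neither met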;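 also: stock transfer was 7.5 nL into about 7.5 µL; 0% = neutral wells and 100% = wells with inactivated enzyme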
UCH37 DUB inh – human UCH37 deubiquitinating enzyme inhibition; Q9Y5K5; purified proteasome/UCH37, Ub-AMC cleavage fluorescence; inhibition, % (test concentration not listed); actives 0.33% (n = 330,000);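 active = mean of two replicates above 20%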;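 also: 0% = compound-free wells with enzyme and 100% = wells lacking proteasome; stock transfer was 100 nL into about 20 µL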
Target sequence (Q9Y5K5 whole entry, looked up): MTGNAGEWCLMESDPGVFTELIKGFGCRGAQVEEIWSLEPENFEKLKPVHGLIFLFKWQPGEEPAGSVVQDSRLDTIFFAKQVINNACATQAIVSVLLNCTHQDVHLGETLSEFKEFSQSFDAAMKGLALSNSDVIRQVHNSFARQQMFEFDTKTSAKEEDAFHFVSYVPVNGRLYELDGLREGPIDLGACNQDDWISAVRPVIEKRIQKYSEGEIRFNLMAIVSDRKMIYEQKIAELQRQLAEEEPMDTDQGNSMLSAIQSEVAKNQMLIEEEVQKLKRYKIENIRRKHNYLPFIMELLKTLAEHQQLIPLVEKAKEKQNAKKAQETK
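assay system = human UCH37 enzyme supplied as purified proteasome complex | amount = proteasome at 0.15 nM in the dispensed enzyme solution | schedule = 30 min compound-proteasome preincubation then 25 min substrate reaction, room temperature | measured by = fluorescence, ex 355 nm, em 460 nm | benchmarks = no-proteasome wells (full inhibition) and compound-free wells (no inhibition)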
Ecoli rRNA inh OD600 – recorded beside Ecoli rRNA inh, whose call it bears; OD600 change, %; measured here: OD600 growth;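 optical density of the mix in the first replicate; 0 = DMSO median and -100 = no signal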
Ecoli rRNA inh RFP – further read-out of Ecoli rRNA inh, marked with its call; RFP signal change, %; measured here: RFP humanized mutant strains;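 first replicate; 0 = DMSO median and -100 = no signal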
* hit, by the source's call; i = inactive; ? = inconclusive; nt = not tested or not shown. Only part of the results is shown, so the mix of outcomes need not match the whole.

B2AR ag	HNF4A DNA FP	Ecoli rRNA inh	Ecoli rRNA inh OD600	Ecoli rRNA inh RFP	Ecoli growth	FGF22 binding	ALR H2O2 inh	UCH37 DUB inh	SMILES
-3	2.6	1	12	0.0	0.69	i	-10	-23	COc1ccc(OCCCC(=O)Nc2nc(C)c(C(C)=O)s2)cc1
3	2.3	-4	-14	-1.9	0.72	i	nt	5.5	CCC(Oc1ccccc1)C(=O)Nc1nnc(S(=O)(=O)N2CCCC2)s1 (stereo not drawn)
3	-1.7	10	12	0.7	0.65	i	-10	-0.1	O=C1C2CCCN2C(=S)N1Cc1ccccc1 (stereo not drawn)
1	4.0	nt	nt	nt	0.66	nt	-15	-0.4	O=C(COC(=O)Cc1ccc(S(=O)(=O)N2CCOCC2)s1)NCCc1ccccc1
-1	1.5	-45	-70	-9.4	0.71	i	7	2.6	Cc1ccc(C(=O)Nc2nc(-c3ccc(F)cc3)cs2)o1
-2	2.1	nt	nt	nt	0.76	nt	21	5.4	Cc1cc2c(c(=O)o1)C(C13C=CC(CC1)C3)C(C#N)=C(N)O2 (stereo not drawn)
-2	-6.7	3	5	0.3	0.67	i	-12	-1.4	COc1cc(C2CC(=O)Nc3c2c(=O)nc2c(C)cccn32)cc(OC)c1OC (stereo not drawn)
1	3.4	-33	-33	-17	0.65	i	1	-3.2	COc1cn(-c2ccccc2)nc1C(=O)Nc1ccccc1
12	13	3	-19	13	0.67	i	nt	7.7	CC(C)(CN1CCN(C(c2ccccc2)c2ccccc2)CC1)NS(=O)(=O)c1ccccc1
-7	0.1	6	7	-0.1	0.77	i	-3	3.5	Cn1c(CC(=O)Nc2ccc(F)cc2)c(Sc2ccccc2)c2ccccc21
7	-0.5	-3	5	0.9	0.72	i	-1	5.2	COc1ccc(C(=O)N/C(=C\c2cn(S(=O)(=O)N(C)C)c3ccccc23)C(=O)NCCN2CCOCC2)cc1OC
2	-1.9	nt	nt	nt	0.65	nt	7	2.2	C=CCc1c(C)nc(SCc2nc3ccccc3c(=O)[nH]2)[nH]c1=O

New compounds follow.
B2AR ag	HNF4A DNA FP	Ecoli rRNA inh	Ecoli rRNA inh OD600	Ecoli rRNA inh RFP	Ecoli growth	FGF22 binding	ALR H2O2 inh	UCH37 DUB inh	SMILES
0	-0.9	7	1	-0.1	0.72	i	0	0.3	CNc1nc(Cl)c(SC)c(N2CCOCC2)n1
2	-3.0	16	10	-2.2	0.75	i	-1	4.3	NC(=S)Nc1ncc(CCN2CCOCC2)c(-c2ccc(F)cc2)n1
6	3.6	nt	nt	nt	0.69	nt	nt	0.8	CCC(C)N(C)Cc1cccc(C2(O)CCN(S(=O)(=O)c3ccc(F)c(C)c3)CC2)c1 (stereo not drawn)
3	-2.9	6	5	3.5	0.71	nt	-13	-0.5	Cc1ccc(Cl)cc1NC(=S)N(CCCN1CCN(C)CC1)Cc1ccco1
-2	-3.1	-20	-18	-2.5	nt	i	1	nt	BrC(=C\c1ccccc1)/C=N/Nc1nc(N2CCOCC2)nc(N2CCOCC2)n1
-2	nt	nt	nt	nt	0.73	nt	nt	4.5	COc1ccccc1-c1noc(-c2ccco2)n1
4	-3.3	nt	nt	nt	0.73	nt	-1	0.5	Cc1ccc(CC2CC(=O)N(CC(=O)O)C2=O)cc1 (stereo not drawn)
-4	-3.4	nt	nt	nt	0.69	nt	nt	2.6	CCOCC(=O)Nc1nc2ccc(OC)cc2s1
0	-4.7	-9	-7	3.0	nt	i	3	nt	CC(C)c1ccc(OCC(=O)Nc2ccncc2)cc1
-9	-0.6	-22	-43	27	0.69	i	-7	4.0	O=C(c1ccccc1)c1ccc(OCC(O)CNC2CCCc3ccccc32)cc1 (stereo not drawn)
2	-1.2	nt	nt	nt	nt	nt	0	nt	COc1ccc(/C=N/n2c(C)nnc2C)c(OC)c1OC
-15	-2.1	nt	nt	nt	0.63	nt	-6	1.8	CCOC(=O)C(C)Sc1nc2ccccc2c(=O)n1CC1CCCCC1 (stereo not drawn)

Given with two lines to a compound: part of the list above
Results follow in this order: B2AR ag, HNF4A DNA FP, Ecoli rRNA inh, Ecoli rRNA inh OD600, Ecoli rRNA inh RFP, Ecoli growth, FGF22 binding, ALR H2O2 inh, UCH37 DUB inh
> CCC(C)N(C)Cc1cccc(C2(O)CCN(S(=O)(=O)c3ccc(F)c(C)c3)CC2)c1 (stereo not drawn)
  6, 3.6, nt, nt, nt, 0.69, nt, nt, 0.8
> Cc1ccc(Cl)cc1NC(=S)N(CCCN1CCN(C)CC1)Cc1ccco1
  3, -2.9, 6, 5, 3.5, 0.71, nt, -13, -0.5
> BrC(=C\c1ccccc1)/C=N/Nc1nc(N2CCOCC2)nc(N2CCOCC2)n1
  -2, -3.1, -20, -18, -2.5, nt, i, 1, nt
> COc1ccccc1-c1noc(-c2ccco2)n1
  -2, nt, nt, nt, nt, 0.73, nt, nt, 4.5
> Cc1ccc(CC2CC(=O)N(CC(=O)O)C2=O)cc1 (stereo not drawn)
  4, -3.3, nt, nt, nt, 0.73, nt, -1, 0.5
> CCOCC(=O)Nc1nc2ccc(OC)cc2s1
  -4, -3.4, nt, nt, nt, 0.69, nt, nt, 2.6
> CC(C)c1ccc(OCC(=O)Nc2ccncc2)cc1
  0, -4.7, -9, -7, 3.0, nt, i, 3, nt
> O=C(c1ccccc1)c1ccc(OCC(O)CNC2CCCc3ccccc32)cc1 (stereo not drawn)
  -9, -0.6, -22, -43, 27, 0.69, i, -7, 4.0
> COc1ccc(/C=N/n2c(C)nnc2C)c(OC)c1OC
  2, -1.2, nt, nt, nt, nt, nt, 0, nt
> CCOC(=O)C(C)Sc1nc2ccccc2c(=O)n1CC1CCCCC1 (stereo not drawn)
  -15, -2.1, nt, nt, nt, 0.63, nt, -6, 1.8

Other records follow:
B2AR ag	HNF4A DNA FP	Ecoli rRNA inh	Ecoli rRNA inh OD600	Ecoli rRNA inh RFP	Ecoli growth	FGF22 binding	ALR H2O2 inh	UCH37 DUB inh	SMILES
6	-2.5	10	-2	6.0	0.68	i	7	-91	COc1ccc(NC(=O)c2cc(-c3ccc(C)o3)nc3ccccc23)cc1
-7	-4.7	-1	2	-2.8	0.71	i	98*	0.8	Cn1ccnc1SCc1cccc([N+](=O)[O-])c1
3	1.2	2	9	-3.3	0.72	i	-4	1.8	O=C(NCc1ccncc1)c1cccc(S(=O)(=O)NCc2ccccc2)c1
6	1.5	nt	nt	nt	0.68	nt	-6	6.1	CCC(C)(C)n1nnnc1C(c1ccc(OC)c(OC)c1)N1CCN(c2ccc(F)cc2)CC1 (stereo not drawn)
-6	0.9	-4	-7	-1.7	0.68	i	-16	2.6	O=C(c1ccc(Br)s1)N1CCN(S(=O)(=O)c2ccccc2)CC1
-1	-2.7	7	9	-0.8	0.69	nt	nt	4.4	O=C(Nc1ccccn1)c1cccc(S(=O)(=O)N2CCc3ccccc3C2)c1
0	-2.1	1	-1	-2.4	0.65	i	-6	2.4	CC(C)CC(OC(=O)c1nsc(Cl)c1Cl)C(=O)NC1CCCC1 (stereo not drawn)
-13	1.7	-4	-12	-0.9	nt	i	58	nt	Cc1cc(SCC(=O)N/N=C/c2ccco2)nc2ccccc12
2	3.4	nt	nt	nt	0.69	nt	4	2.8	CCOC(=O)Cc1csc(NC(=O)CN2C(=O)c3ccccc3S2(=O)=O)n1
6	2.4	-58	-81	-21	0.64	i	31	-32	Cc1ccc(-c2nc(Nc3ccc(O)cc3)c3ccccc3n2)cc1
-1	-0.8	14	5	1.6	0.7	i	-1	-0.5	CC(=O)N1c2ccc(S(=O)(=O)N3CCCC3)cc2CC1C(=O)NC(C)C (stereo not drawn)
-12	-1.0	nt	nt	nt	nt	nt	?	nt	Cc1c(NC(=S)N/N=C/c2cccc(O)c2)c(=O)n(-c2ccccc2)n1C

Continuation:
B2AR ag	HNF4A DNA FP	Ecoli rRNA inh	Ecoli rRNA inh OD600	Ecoli rRNA inh RFP	Ecoli growth	FGF22 binding	ALR H2O2 inh	UCH37 DUB inh	SMILES
-6	-3.9	-8	-2	-4.8	0.69	i	-8	4.4	O=C(CCCSc1nnc(Nc2ccccc2F)s1)N1CCOCC1
-3	3.4	-12	-10	2.4	0.67	nt	-5	3.0	CCN(CC)S(=O)(=O)c1cccc(S(=O)(=O)N2CCCCC2)c1
-4	1.8	17	13	4.0	0.67	i	1	4.9	CCCN1CCN(C(=O)C2CCN(c3ncnc4c3nc3n4CCCCC3)CC2)CC1
-3	-3.8	nt	nt	nt	0.67	i	-5	6.0	CC(Sc1nnnn1C1CC1)C(=O)N1c2ccccc2NC(=O)C1(C)C (stereo not drawn)
21	2.5	-14	-20	2.7	0.7	nt	nt	2.1	CCC1(c2ccccc2)NC(=O)N(CC(=O)Nc2cccc(S(=O)(=O)N3CCCCC3)c2)C1=O (stereo not drawn)
6	2.9	19	7	0.6	0.68	i	2	6.0	COc1cc(/C=C/c2c([N+](=O)[O-])c(=O)n(C)c(=O)n2C)cc(OC)c1OC
-3	0.3	nt	nt	nt	0.74	nt	-2	0.0	CCn1c(SCC(=O)NCc2ccc3c(c2)OCO3)nnc1-c1c[nH]c2ccccc12
4	-3.3	-1	-19	2.2	0.67	i	nt	-1.3	CCOc1ccccc1N1CCN(C(=O)CSc2ccc3c(c2)OCCO3)CC1
-1	2.7	-17	-32	-7.6	0.76	i	-20	3.9	Cc1cc(C)nc(/N=C2\NC(=O)CC(C(=O)O)N2c2ccc(Cl)cc2Cl)n1 (stereo not drawn)
8	-0.6	-22	-69	6.3	0.67	i	nt	3.3	O=C(Nc1cccc(Cl)c1)OCCOCCOC(=O)Nc1cccc(Cl)c1
7	9.3	6	8	2.3	0.68	i	-27	2.7	CCc1ccc2nc(Nc3ccc(OC)cc3OC)c(C#N)cc2c1
10	3.1	-3	-5	9.0	0.81	i	1	-0.2	COc1cc2c(cc1OC)[C@H](Cc1ccc(O)cc1)NCC2

Next compounds follow.
B2AR ag	HNF4A DNA FP	Ecoli rRNA inh	Ecoli rRNA inh OD600	Ecoli rRNA inh RFP	Ecoli growth	FGF22 binding	ALR H2O2 inh	UCH37 DUB inh	SMILES
-5	-2.4	28	-4	13	0.71	i	nt	4.5	O=C(NCc1ccco1)/C(=C\c1ccco1)NC(=O)c1ccco1
2	-1.0	nt	nt	nt	0.72	nt	-5	3.0	CCOC(=O)C1C(C)N=C2SCC(=O)N2C1c1cccc(Br)c1 (stereo not drawn)
-3	6.6	-2	0	-5.2	nt	i	4	nt	O=C(O)c1ccc(/C=N/NC(=O)c2ccc(F)cc2)cc1
-4	-0.1	-16*	-6.6*	-2.1*	0.67	i	6	1.8	O=C(CSc1nnc(-c2ccccc2F)n1C1CC1)Nc1cccnc1Cl
